KCNQ2 pot: enhances the rat KCNQ2 potassium channel | CHO-K1 KCNQ2, FluxOR thallium flux fluorescence; stronger effect = higher value | B-score at 10 µM | actives 0.54% (n = 310,000) | AID 2239;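 active means fluorescence ratio B-score at least 3 SD of library B-scores, with initial fluorescence B-score within 3 SD, cut at about 5.3 in these data; same plate scores as AID 2156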;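 further: B-score of peak minus minimum over baseline fluorescence ratio after K+ and Tl+ stimulus; positive B-score means potentiation of KCNQ2 with more thallium influx and brighter signal; only the inactives scoring about 0 or higher are listed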
Target sequence (O88943 whole entry, looked up): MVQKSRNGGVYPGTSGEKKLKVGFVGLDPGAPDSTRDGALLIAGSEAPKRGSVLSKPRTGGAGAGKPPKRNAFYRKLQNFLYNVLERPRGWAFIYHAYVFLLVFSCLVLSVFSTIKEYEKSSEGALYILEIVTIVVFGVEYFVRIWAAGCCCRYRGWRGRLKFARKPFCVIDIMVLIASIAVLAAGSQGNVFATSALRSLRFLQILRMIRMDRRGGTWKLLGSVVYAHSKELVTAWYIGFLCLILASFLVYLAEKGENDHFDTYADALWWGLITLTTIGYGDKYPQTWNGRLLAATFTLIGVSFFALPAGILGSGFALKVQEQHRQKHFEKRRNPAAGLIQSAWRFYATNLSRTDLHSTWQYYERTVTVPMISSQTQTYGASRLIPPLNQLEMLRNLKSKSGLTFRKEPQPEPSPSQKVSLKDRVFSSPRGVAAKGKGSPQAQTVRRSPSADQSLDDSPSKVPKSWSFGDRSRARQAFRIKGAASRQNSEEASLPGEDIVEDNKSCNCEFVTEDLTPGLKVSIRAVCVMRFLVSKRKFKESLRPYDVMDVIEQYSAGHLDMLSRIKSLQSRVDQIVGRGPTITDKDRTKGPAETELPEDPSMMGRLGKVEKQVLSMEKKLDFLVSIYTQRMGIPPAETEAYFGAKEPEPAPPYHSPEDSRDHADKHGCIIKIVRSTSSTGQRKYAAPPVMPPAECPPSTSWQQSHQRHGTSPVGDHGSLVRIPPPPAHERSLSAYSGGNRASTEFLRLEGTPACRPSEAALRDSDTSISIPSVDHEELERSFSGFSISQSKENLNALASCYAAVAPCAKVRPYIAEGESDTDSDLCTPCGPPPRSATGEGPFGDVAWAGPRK
KCNQ2 pot baseline: recorded beside KCNQ2 pot, whose call it bears; B-score; compound at 10 µM; measured here: initial fluorescence intensity artifact check;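 brightness before thallium and not channel activity; 0 = typical well and far values either way flag optical interference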
* marks the source's active call; other numbers are inactive results. This is a subset; count on the stated rates, not on these rows.

SMILES | KCNQ2 pot | KCNQ2 pot baseline
Cc1cc2nsnc2c(S(=O)(=O)N2CCN(C)CC2)c1C | 2 | -3.7
O=C(NC1CCCCC1)c1ccc2c(c1)S(=O)(=O)c1ccccc1C2=O | 0.11 | -1.4
Cc1ccc(NC(=O)N2CCN(C(=O)C3CCCO3)CC2)cc1 (stereo not given) | 0.49 | 0.74
Cc1cc(C(F)(F)F)nn1CC(=O)Nc1ccc(Br)c2cccnc12 | 2.1 | -1.5
CCOC(=O)c1[nH]c(C)c(C(=O)OCC(=O)NC2CCS(=O)(=O)C2)c1C (stereo not given) | 0.33 | 0.01
COc1ccc(-c2csc(NC(=O)CS(=O)(=O)c3ccccc3)n2)cc1 | 0.75 | -0.86
CCCCNC(=O)CCNC(=O)c1ccc(C(C)(C)C)cc1 | 0.42 | -1.2
Cc1nc(=O)c(-c2ccccc2)c(C)n1-c1ccc(S(N)(=O)=O)cc1 | 1 | 1.9
COc1ccc(NC(=O)/C(=C\c2ccc(OC)c(OC)c2)NC(=O)c2ccco2)cc1 | 1.2 | -0.13
S=C(Nc1cccc2ccccc12)N1CCN(c2ncccn2)CC1 | 0.06 | -0.09
CCCN1C(=O)C(O)(C2COC(C)(C)CC2=O)c2ccccc21 (stereo not given) | 0.5 | 1.4
CCN(c1cc(C)cc(C)c1)S(=O)(=O)c1nnc(NC(=O)C(C)C)s1 | 0.02 | -0.08
Cc1ccc(C)n1-c1ccc(C(=O)O)cc1 | 0.08 | 3.1
O=C(Nc1ccc(F)c(F)c1)C1=COCCO1 | 0.52 | -1.8
COc1c(C)cc(C(=O)C2CCCN(C(=O)c3cc(C4CC4)[nH]n3)C2)cc1C (stereo not given) | 0.19 | -0.21
Cc1ccsc1/C=N/Nc1ccc(C(=O)O)cc1 | 1.6 | 0.41
Cc1cc(C)n(-c2ccc(Cl)c(C(=O)Nc3ccc(-c4nnc5n4CCCCC5)cc3)n2)n1 | 0.47 | -0.1
CCCCN(CC)C(=O)Cn1ncc2c1-c1cc(C)ccc1OC2 | 0.66 | 0.98
CCn1c(SCC(=O)N2CCCC2)nnc1-c1ccc(S(=O)(=O)N2CCCCCC2)cc1 | 0.07 | 0.25
O=c1c2ccccc2n2c(-c3ccc(C(F)(F)F)cc3)nnc2n1Cc1ccccc1 | 0.96 | -2.2
Cc1onc(-c2ccccc2)c1C(=O)NCC1CCN(C(=O)c2c(-c3ccccc3)noc2C)CC1 | 0.77 | 0.94
Cc1ccc(CN2CCN(C3CSCCSC3)CC2CCO)cc1 (stereo not given) | 1.1 | 0.39
COc1ccc(CN2CCN(Cc3ccc(C)cc3)CC2)c(OC)c1 | 0.04 | -0.81
Cn1c(-c2cccc(Br)c2)cnc1NCc1ccccc1O | 5.6* | -1.7*
CC(=O)c1[nH]c(C)c(C(=O)N2CCCC(Nc3cccc(F)c3)C2)c1C (stereo not given) | 1.2 | 0.04

An excerpt taken from the entries so far:
SMILES | KCNQ2 pot | KCNQ2 pot baseline
COc1ccc(CN2CCN(Cc3ccc(C)cc3)CC2)c(OC)c1 | 0.04 | -0.81
Cn1c(-c2cccc(Br)c2)cnc1NCc1ccccc1O | 5.6* | -1.7*
CC(=O)c1[nH]c(C)c(C(=O)N2CCCC(Nc3cccc(F)c3)C2)c1C (stereo not given) | 1.2 | 0.04

The main list resumes, repeating the 5 entries before the break.
SMILES | KCNQ2 pot | KCNQ2 pot baseline
Cc1onc(-c2ccccc2)c1C(=O)NCC1CCN(C(=O)c2c(-c3ccccc3)noc2C)CC1 | 0.77 | 0.94
Cc1ccc(CN2CCN(C3CSCCSC3)CC2CCO)cc1 (stereo not given) | 1.1 | 0.39
COc1ccc(CN2CCN(Cc3ccc(C)cc3)CC2)c(OC)c1 | 0.04 | -0.81
Cn1c(-c2cccc(Br)c2)cnc1NCc1ccccc1O | 5.6* | -1.7*
CC(=O)c1[nH]c(C)c(C(=O)N2CCCC(Nc3cccc(F)c3)C2)c1C (stereo not given) | 1.2 | 0.04
CC(=O)C1=C(C)NC(SCSc2ccccc2)=C(C#N)C1c1cccnc1 (stereo not given) | 0.12 | -0.97
Cc1ccc(N2C(=O)CC(Sc3ccccc3C(=O)O)C2=O)cc1 (stereo not given) | 0.21 | -0.39
CCOC(=O)C1(CCCc2ccccc2)CCN(Cc2ccn[nH]2)CC1 | 0.99 | -0.07
O=C(Nc1ccc(F)cc1F)c1ccc2c(c1)[nH]c(=O)n2Cc1ccc(F)cc1 | 0.05 | -0.17
COCCCNC(=O)C1CCCN(S(=O)(=O)c2ccc(C)cc2)C1 (stereo not given) | 0.94 | -0.48
CCN(CC)C1CCS(=O)(=O)C1 (stereo not given) | 1.1 | -1.4
CCc1sc(C(=O)NCCc2ccc(S(N)(=O)=O)cc2)cc1C | 1 | 0.02
CCOc1ccc(C(=O)NC(=S)N2CCN(c3ccc(C(F)(F)F)cc3[N+](=O)[O-])CC2)cc1 | 1.1 | -0.01
COc1ccc(N2CC(O)=C(c3nc4ccccc4s3)C2=N)c(OC)c1 | 0.06 | 0.05
COc1ccccc1CCC(=O)OCC(=O)Nc1ccc(C(N)=O)cc1 | 0.93 | -0.14
CCn1c2ccccc2n2c(=O)c(=O)n(CC(=O)N3CCN(c4ccccc4OC)CC3)nc12 | 0.02 | -0.09
O=C(Nc1ccc(N2CCOCC2)cc1)c1ccc(Br)o1 | 0.04 | 0.37
CCN(CC)c1ccc(NC(=O)c2c(C)noc2C)cc1 | 0.43 | 0.18
Cc1ccc(-c2cnc3n2CCCCC3)cc1 | 0.66 | -0.08
CSc1ncccc1C(=O)N1CCCC(N2CCN(c3ccccc3F)CC2)C1 (stereo not given) | 0.53 | 1.4
Cn1c(=O)cc(SCC(=O)NCCCN2CCOCC2)c2ccccc21 | 0.39 | 0.58
Cc1ccc(C(=O)NCCn2cc(SCC(=O)N3CCOCC3)c3ccccc32)cc1 | 0.98 | -0.67
Cc1ccc2cc3cc(C(=O)NCc4ccco4)oc3nc2c1 | 0.41 | -1.1
Cc1cc(NS(=O)(=O)c2ccc(NC(=O)C(C)Oc3ccc4c(C)cc(=O)oc4c3)cc2)no1 (stereo not given) | 0.42 | 0.88
CC(=O)Nc1cccc(NC(=O)CSc2ccc3nnc(CCNC(=O)c4ccccc4)n3n2)c1 | 0.13 | -0.45
O=C(NCc1cccs1)C1CCCN1C(=O)Nc1cccc(F)c1 (stereo not given) | 1.7 | -1.1
CCC1CCCCN1CCCNC(=O)CN1C(=O)c2cccnc2Oc2ccc(C)cc21 (stereo not given) | 0.03 | 0.7
O=C(Cc1ccc(NC2=NC3CS(=O)(=O)CC3S2)cc1)NCc1ccccc1Cl (stereo not given) | 0.43 | -0.23
COCCCNC(=O)C1CCC(=O)N(c2ccc3c(c2)OCO3)C1c1ccc(OC)cc1 (stereo not given) | 0.99 | -0.06
Cc1ccc(C(=O)NCC(=O)N2CCN(c3ccccc3)CC2)cc1 | 0.52 | -0.86

3 structures from above, sorted by count of non-hydrogen atoms, lowest first.
SMILES | KCNQ2 pot | KCNQ2 pot baseline
Cc1ccc(-c2cnc3n2CCCCC3)cc1 | 0.66 | -0.08
CCN(CC)c1ccc(NC(=O)c2c(C)noc2C)cc1 | 0.43 | 0.18
CCC1CCCCN1CCCNC(=O)CN1C(=O)c2cccnc2Oc2ccc(C)cc21 (stereo not given) | 0.03 | 0.7

More compounds:
SMILES | KCNQ2 pot | KCNQ2 pot baseline
O=C(c1ccco1)N(c1ccccn1)c1ccccn1 | 0.4 | -1.6
CC(C)(C)C(=O)NNC(=O)c1ccc(Oc2cc(Cl)cc(Cl)c2)o1 | 3.9 | -0.35
CCc1nc2sc3ccccc3c(=O)c2c(=O)n1CCOC | 0.08 | 0.68
CCOc1ccc(NC(=S)NCc2nc3ccccc3[nH]2)cc1 | 0.17 | -0.24
Cc1cc(C)c(NC(=O)Cc2ccc(-n3cccc3)cc2)c(C)c1 | 4 | -0.04
O=S(=O)(c1ccccc1F)N1CCN(c2nc3ccccc3s2)CC1 | 0.02 | 1.5
CC(C)(C)C1CCC(=NNC(=O)CN(c2ccccc2)S(C)(=O)=O)CC1 (stereo not given) | 0.82 | 1.4
COc1ccc2[nH]c3c(=O)n(CCCCC(=O)N4CCCC4)c(=S)[nH]c3c2c1 | 0.35 | 1.1
Cc1ccc(-c2csc(N(CCc3ccccc3)C(=O)COc3ccccc3)n2)cc1 | 0.03 | -0.31
CC1CCCN(c2nc(NCc3ccco3)nc(N)c2[N+](=O)[O-])C1 (stereo not given) | 0.05 | -0.36
COc1ccc(-n2c3c(c(=O)[nH]c2=O)C(NC(C)=O)(C(F)(F)F)C(=O)N3)cc1 (stereo not given) | 0.57 | 0.09
CCOC(=O)Cc1csc(NC(=O)c2ccc(C)o2)n1 | 0.48 | 0.05
CC(SC1=NCCS1)C(=O)Nc1nnc(-c2ccc(F)cc2)s1 (stereo not given) | 1.5 | -0.58
CCOC(=O)CN1C(=O)C(=O)N(Cc2ccccc2)C1=O | 0.04 | -1
Cc1ccc(NC(=O)COC(=O)COc2ccc(Cl)cc2C)c([N+](=O)[O-])c1 | 0.65 | -1.4
Cc1nc(NC(C)C)c2cnn(CCc3ccccc3)c2n1 | 0.11 | -0.51
O=C(NC1CCN(Cc2ccccc2)CC1)C1CCN(S(=O)(=O)c2cccc3cccnc23)CC1 | 2.1 | 1.9
O=C(NCCCNC(=O)c1ccccn1)c1ccccn1 | 0.24 | -0.81
CC(C)c1ccc(NC(=O)[C@H]2CSCN2C(=O)[C@@H]2CCC(=O)N2)cc1 | 1.1 | 0.69
O=C(COc1ccc2c(c1)OCO2)Nc1nccs1 | 0.57 | -0.02
CC(C)c1ccc(CNc2ccc(N3CCOCC3)cc2)cc1 | 0.39 | -0.25
COC(=O)Cc1ccc(O)c(N)c1 | 0.42 | 2.2
CCN(CC)CCOC(=O)C(Cc1cccc2ccccc12)CC1CCCO1 (stereo not given) | 2.3 | 0.19
Cc1ccc2c(CN(C)Cc3cccc(F)c3)cc(=O)oc2c1 | 0.3 | -0.36
COc1cc(Cl)ccc1OCc1cc(C(=O)N(C)C2CCOC2)no1 (stereo not given) | 0.17 | -0.81
New compounds follow
SMILES | KCNQ2 pot | KCNQ2 pot baseline
N#Cc1c(SCC(=O)Nc2nc3ccc(Br)cc3s2)sc2c(O)cc(=O)[nH]c12 | 0.97 | -1.4
COc1cccc(NC(=S)NCc2cccs2)c1 | 0.09 | -0.05
CC(NS(C)(=O)=O)C(c1cccs1)N1CCN(c2ccccc2F)CC1 (stereo not given) | 0.29 | 1.3
Cc1nn(C(=O)N2CCOCC2)c(C)c1CN1C(=O)c2ccccc2C1=O | 2.3 | -0.09
CC1CCCN(C(=O)NC2CC(=O)N(c3ccc4c(c3)OCCO4)C2)C1 (stereo not given) | 0.29 | -0.25
COCCSc1nnc(NC(=O)C2CCN(C(=O)c3ccco3)CC2)s1 | 1.7 | 0.64
COc1ccccc1N1CCN(C(c2cccs2)c2nnnn2C2CCCC2)CC1 (stereo not given) | 0.03 | -0.06
COc1ccc(S(=O)(=O)N2CCCCCC2)cc1NC(=O)c1ccccc1 | 0.16 | 1.7
COc1ccccc1C(=O)N1CC(=O)Nc2ccc(C)cc2C1c1ccc(F)cc1 (stereo not given) | 0.12 | -0.47
CC1=C(C(=O)NCc2ccccn2)C2(CCC(C)CC2)OC1=O (stereo not given) | 0.1 | 0.73
CC(C)=CC(=O)OCC(=O)Nc1ccc(Cl)cn1 | 0.7 | -1.1
CCOC(=O)N1CCN(C(=O)c2noc3c2COc2ccccc2-3)CC1 | 0.03 | -0.44
O=C(CSc1nc(-c2ccccc2)cc(=O)[nH]1)Nc1ccccc1F | 0.04 | -0.21
COc1ccc(C2=CSC3=NNC4(CCCCC4)NN23)cc1 | 1.5 | -1.4
CCCn1nnnc1SCC(=O)N1CCCCC1 | 0.04 | 0.93
O=C(O)c1cccc(NC2=Nc3cccc4cccc2c34)c1 | 0.25 | -0.07
COc1cccc(OCCNC(=O)c2ccc(C)cc2)c1 | 0.15 | 0.41
S=C(Nc1ccccc1)Nc1ccc(OCc2ccccc2)cc1 | 0.23 | 1.1
CC1CCN(C(=O)Cn2nnc(-c3ccc([N+](=O)[O-])cc3)n2)CC1 | 4.5 | -0.59
CC(C)CCN1CC(O)=C(c2nc3ccccc3[nH]2)C1=N | 0.57 | 1.2
CS(=O)(=O)Nc1ccc(C2=NN(C(=O)c3ccco3)C(c3cccc(F)c3)C2)cc1 (stereo not given) | 2 | 0
COC(=O)Cn1cnc2sc(C)c(S(=O)(=O)N3CCC(C)CC3)c2c1=O | 0.57 | 0.4
CC(C)(C)OC(=O)NCc1ccc(CNC(=O)c2[nH]cnc2C(=O)NCC(=O)OCc2ccccc2)cc1 | 0.44 | -0.12
CC(C)(C)c1ccc(-n2ncc3c2CCCC3NC(=O)C2(C(N)=O)CC2)cc1 (stereo not given) | 2.9 | 1.7
CCC(=O)Nc1nnc(SCC(=O)Nc2cccc(Cl)c2)s1 | 0.69 | -0.84
Later entries.
SMILES | KCNQ2 pot | KCNQ2 pot baseline
COc1ccc(CCNC(=O)CCCN2C(=O)c3ccccc3C2=O)cc1 | 0.22 | 0.28
COc1ccc(C(=O)CSc2nc(C)cc(C)n2)cc1C | 0.28 | -0.81
CCOc1ccc(NC(=O)c2ccc(NC(=S)NC3CC3)cc2)cc1 | 0.45 | -0.36
COc1ccccc1CNC(=O)CN(C)S(=O)(=O)c1ccc(F)cc1 | 0.98 | 0.43
CCOC(=O)c1nnn(CC(=O)Nc2ccccc2OC)c1C(=O)OCC | 1.3 | -2.1
CCOC(=O)N1CCN(C(=O)c2cc(C)no2)CC1 | 1.8 | -0.28
CCCCCN(C(=O)CCC(=O)OCC(=O)N(CC#N)c1ccccc1)c1c(N)n(CCCC)c(=O)[nH]c1=O | 0.24 | 0.31
O=C1CCN(Cc2ccccc2)N1 | 0.72 | -0.33
